Rango-impB inh: qHTS Assay for Inhibitors of Rango (Ran-regulated importin-beta cargo) - Importin beta complex formation | Rango CFP/YFP FRET sensor + importin beta, 45 min | Potency, µM (titrated, usually from 92.2 µM), for the others: top-dose inhibition of complex formation | 340,000 tested, 0.031% active; active = rising FRET ratio curve, often small or poorly fitted; inconclusive = mostly compound fluorescence or quenching in the first reads; inactive = flat curves in all reads;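 note: potency is the fitted concentration of half-maximal effect; 0% = DMSO wells and 100% = buffer wells lacking importin beta; nearly all actives have a fitted effect of over 15% in size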
Target sequence (Q14974 whole entry, looked up): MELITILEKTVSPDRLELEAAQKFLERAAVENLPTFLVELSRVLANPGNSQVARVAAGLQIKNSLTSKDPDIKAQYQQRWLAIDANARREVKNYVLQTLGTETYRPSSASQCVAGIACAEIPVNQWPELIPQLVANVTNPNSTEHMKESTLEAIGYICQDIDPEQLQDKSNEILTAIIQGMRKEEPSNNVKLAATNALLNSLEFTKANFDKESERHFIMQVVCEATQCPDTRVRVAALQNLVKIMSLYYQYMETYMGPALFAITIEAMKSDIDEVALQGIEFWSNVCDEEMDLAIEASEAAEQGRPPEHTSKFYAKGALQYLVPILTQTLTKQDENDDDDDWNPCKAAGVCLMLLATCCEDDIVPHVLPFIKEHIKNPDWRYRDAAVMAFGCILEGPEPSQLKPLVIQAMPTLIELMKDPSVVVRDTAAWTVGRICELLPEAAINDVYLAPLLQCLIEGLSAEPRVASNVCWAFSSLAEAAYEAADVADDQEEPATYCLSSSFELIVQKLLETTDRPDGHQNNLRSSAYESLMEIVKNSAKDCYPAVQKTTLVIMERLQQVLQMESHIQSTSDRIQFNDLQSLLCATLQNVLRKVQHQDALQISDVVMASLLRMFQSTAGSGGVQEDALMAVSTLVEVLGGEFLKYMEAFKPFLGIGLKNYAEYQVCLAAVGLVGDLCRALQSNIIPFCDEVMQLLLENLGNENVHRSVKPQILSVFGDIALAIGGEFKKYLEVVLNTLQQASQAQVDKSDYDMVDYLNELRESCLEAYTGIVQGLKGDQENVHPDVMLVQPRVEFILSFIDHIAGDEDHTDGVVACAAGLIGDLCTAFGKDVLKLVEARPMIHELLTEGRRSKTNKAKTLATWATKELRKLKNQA
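FRET biosensor Rango (snurportin 1 IBB between N-terminal EYFP and C-terminal Cerulean), 50 nM in PBS/1 mM DTT/0.02% Tween-20/0.1% BSA, preincubated 5 min RT with compound; 0.125 microM importin beta added, 45 min RT, CFP/YFP FRET ratio read.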
miR-21 reporter: qHTS Assay for Modulators of miRNAs and/orActivators of miR-21. HeLa miR-21 FLuc reporter, luciferase, 48 h. Potency, µM (top dose mostly 38.3 µM), for the others: at the top dose reporter change, positive = more light. 340,000 tested, under 10 active. AID 2288, 2010; active = well fitted rising curve with a large enough effect; inconclusive = small, poorly fitted or top-dose-only effect; inactive = no such curve, though single readings can be large or run the other way;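 note: % of control where 0% means no effect; miR-21 action dims this reporter so a rising signal means less miR-21 action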
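HeLa miR-21-FLuc reporter line, endogenous miR-21; 2000 cells/well in DMEM/10% FBS; compound titration up to ~40uM final, 48 h, 37 degree Celsius; luciferase detection reagent, 15 min lysis, CCD luminescence.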
GLA inh pH 4.5: qHTS Assay for Inhibitors of Human alpha-Galactosidase at pH 4.5 | Alpha-galactosidase A (Homo sapiens), P06280 | purified enzyme, 4-MU-alpha-Gal fluorescence, pH 4.5 | activity change, negative = inhibition, % at 105 µM | 230,000 tested, under 10 active; inconclusive = small, poorly fitted or top-dose-only inhibition, or a rising curve; inactive = flat fitted curve, though single readings scatter; no compound was filed as active;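 note: 0% = full activity with enzyme and -100% = basal without enzyme; dose as in the result columns while the protocol names 77 µM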
Rango release inh: qHTS Assay for Inhibitors of RanGTP induced Rango (Ran-regulated importin-beta cargo) - Importin beta complex dissociation | Biochemical FRET Rango-importin beta, RanGTP-induced dissociation | Potency, µM (series often up to 46.1 µM), without a hit: at the top dose activity change, negative = inhibition | 340,000 tested, 0.071% active; active means falling FRET ratio curve, often poorly fitted, with flat reads before Ran was added; inconclusive means other falling curves, or compound fluorescence or quenching; inactive means flat or rising ratio curve;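 note: potency is the fitted concentration of half-maximal effect; % of control where 0% means no effect; nearly all actives have a fitted effect of over 45% in size; -100% = wells without RanGTP and RCC1; the record marks most hits as doubtful in a second field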
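Rango/importin beta premix (0.1/0.25 uM final), PBS + 1 mM DTT + 0.02% Tween-20 + 0.1% BSA; cpd 5 min RT; FRET pre-read; + RanGTP-RCC1 (0.6 uM Ran, 2 mM GTP, 0.2 uM RCC1); 45 min RT; FRET post-read, ex 430, em 486/530 nm.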
* hit, by the source's call; ? = inconclusive; . = no result given; & = joins results of further samples; [ ] = dose if it differs, or a comment. The list is partial, so the mix of outcomes need not match the whole.

Preview, 2 compounds:
Rango-impB inh	miR-21 reporter	GLA inh pH 4.5	Rango release inh	compound
4.3%	3.7%	-0.2	8.3%	c1cncc(-c2nc(NCc3cccs3)c3ccccc3n2)c1
-3.9%	0.4%	.	21.9%	O=C(O)/C(CC(=O)c1ccc(Cl)cc1)=N/Nc1ccc([N+](=O)[O-])cc1[N+](=O)[O-]

The listing, from the first entry:
Rango-impB inh	miR-21 reporter	GLA inh pH 4.5	Rango release inh	compound
4.3%	3.7%	-0.2	8.3%	c1cncc(-c2nc(NCc3cccs3)c3ccccc3n2)c1
-3.9%	0.4%	.	21.9%	O=C(O)/C(CC(=O)c1ccc(Cl)cc1)=N/Nc1ccc([N+](=O)[O-])cc1[N+](=O)[O-]
-0.7%	0.5%	5.8	18.7%	O=C(COC(=O)c1ccc(NS(=O)(=O)c2cccs2)cc1)NCC1CCCO1 (centres undefined)
-0.8%	-21.8%	-4.0	2.4%	COc1ccccc1NC(=O)Nc1cc(F)ccc1F
-0.2%	.	.	-0.5%	CCc1cc(Cn2nc(-c3ccccc3)cc2C(=O)NCCOC)on1
.	11.5%	-5.7&3.0	.	Cn1c(=O)c(C(=O)COC(=O)c2cc(-c3ccco3)nc3ccccc23)c(N)n(CC2CC2)c1=O
5.2%	-4.2%	5.0	-3.5%	C/C(N)=C(/C#N)C(=O)CSc1nncn1-c1ccccc1
?	-1.2%	.	?	Cc1cc(S(=O)(=O)c2cc3ccc(O)c(C)c3oc2=O)ccc1F
0.4%	-12.1%	-5.0	-16.9%	O=C(NNc1nc2c(F)cc(F)cc2s1)c1ccccc1
-6.7%	.	.	-18.5%	CC1(C)C(=O)Nc2ccccc2N1C(=O)COc1ccc(C#N)cc1
-1.7%	-4.6%	2.4	22.9%	O=C(CSc1oc(-c2ccco2)nc1S(=O)(=O)c1ccc(F)cc1)NCC1CCCO1 (centres undefined)
-2.0%	.	.	6.1%	COCCN(C(=O)COC(=O)CNC(=O)c1cccs1)c1c(N)n(Cc2ccccc2)c(=O)[nH]c1=O

Further records follow:
Rango-impB inh	miR-21 reporter	GLA inh pH 4.5	Rango release inh	compound
3.5%	0.4%	.	1.4%	CCN(C(=O)CN1C(=O)/C(=C/c2ccccc2)SC1=S)C1CCS(=O)(=O)C1 (centres undefined)
0.3%	8.1%	-1.7	8.4%	Cc1nc2cc(NS(=O)(=O)c3ccc(Br)cc3)ccc2n1C
-1.8%	-60.1%	-8.0[21.1 µM]	-0.1%	CCOC(=O)c1ccc2ncc(-c3ccccc3)nc2c1
0.2%	.	.	3.9%	CN(C(=O)c1ccccc1C(=O)OCC(=O)Nc1ccc(S(N)(=O)=O)cc1)c1ccccc1
-2.7%	0.1%	.	-0.8%	C=CCc1ccccc1OCC(=O)NNC(=S)NCc1ccccc1
-6.1%	-8.9%	9.8	-11.0%	CCC(c1nnc(SCC(=O)NC23CC4CC(CC(C4)C2)C3)o1)N(C)C (centres undefined)
-0.5%	-16.9%	-14.9	0.6%	NC(N)=Nc1nc2ccc([N+](=O)[O-])cc2[nH]1
.	2.7%	4.8&2.0	.	CCCCC1=CC2=C(c3ccco3)C(=O)C(C)(OC(=O)c3ccc(OC)cc3)C(=O)C2=CN1Cc1ccc(OC)cc1 (centres undefined)
-0.4%	-2.7%	-0.1	6.4%	O=C(CSc1nnc(-c2ccco2)o1)NC1CCCCCC1
-3.0%	-7.9%	.	21.7%	CN(C(=O)CN1C(=O)S/C(=C\c2ccccc2Cl)C1=O)C1CCS(=O)(=O)C1 (centres undefined)
1.4%	-5.3%	1.8	-5.8%	Cc1ccc(/C=C(\C#N)C(=O)Nc2c(C)cccc2C)s1
0.0%	4.7%	6.8	24.2%	CC(=O)COc1ncnc2c(Cl)cc(Cl)cc12

Reprinted from the part before: 5 compounds, followed by the next part.
Rango-impB inh	miR-21 reporter	GLA inh pH 4.5	Rango release inh	compound
.	2.7%	4.8&2.0	.	CCCCC1=CC2=C(c3ccco3)C(=O)C(C)(OC(=O)c3ccc(OC)cc3)C(=O)C2=CN1Cc1ccc(OC)cc1 (centres undefined)
-0.4%	-2.7%	-0.1	6.4%	O=C(CSc1nnc(-c2ccco2)o1)NC1CCCCCC1
-3.0%	-7.9%	.	21.7%	CN(C(=O)CN1C(=O)S/C(=C\c2ccccc2Cl)C1=O)C1CCS(=O)(=O)C1 (centres undefined)
1.4%	-5.3%	1.8	-5.8%	Cc1ccc(/C=C(\C#N)C(=O)Nc2c(C)cccc2C)s1
0.0%	4.7%	6.8	24.2%	CC(=O)COc1ncnc2c(Cl)cc(Cl)cc12
-0.3%	-2.0%	1.3	10.3%	O/N=C1/CCSc2ccccc21
-1.7%	-2.7%	4.8	-3.1%	CC(=O)N1CCN=C1SCc1cccc(C(F)(F)F)c1
-0.5%	-11.5%	1.8	-1.9%	O=C(c1c(F)cccc1F)N1CCN=C1SCc1ccccc1
2.4%	0.9%	.	-0.7%	CC(=O)Nc1ccc(NC(=O)CSc2ccc3nnc(-c4cccnc4)n3n2)cc1
1.2%	5.1%	-0.9	7.0%	CCc1nc(C)cc2c1sc1ccccc12
-1.0%	0.9%	10.7	-7.3%	CCC1CCCCN1C(=O)c1c[nH]c2ccc(S(=O)(=O)N(C)c3ccc(Cl)cc3)cc2c1=O (centres undefined)
-4.8%	-2.2%	1.5	-12.6%	CCOc1ccccc1NC(=O)C(OC(=O)c1ccc(N(C)C)cc1)c1ccccc1 (centres undefined)
0.0%	5.3%	-5.6	-2.5%	Cc1cc(C)c2nc(Cl)c(Cl)nc2c1
-0.5%	4.2%	.	18.9%	CC(NC(=O)C1CCC(CNS(=O)(=O)c2ccccc2)CC1)c1ccccc1 (centres undefined)
1.1%	.	.	-0.1%	Clc1ccc2c(c1)Nc1ccccc1CC2
0.9%	-1.7%	.	-2.5%	O=C(O)COc1ccccc1/C=C1\C(=O)Nc2ccc(Br)cc21
0.2%	3.1%	-3.2	-1.3%	N=c1ccn(Cc2ccc(F)cc2)cc1

More records:
Rango-impB inh	miR-21 reporter	GLA inh pH 4.5	Rango release inh	compound
-2.8%	-7.9%	.	11.8%	CC1CCN(C(=O)CCCN2C(=O)c3cccnc3Oc3ccc(Cl)cc32)CC1
-4.1%	-5.3%	4.7	25.5%	Cc1ccc(S(=O)(=O)N/N=C/c2ccc(OCC(=O)Nc3ccccc3Cl)cc2)cc1
-1.9%	-4.7%	-2.0	-1.2%	CN(C)C(=S)Nc1ccc(Br)c(Cl)c1
1.6%	-55.9%	8.1	-14.0%	O=C(O)CCC(=O)Nc1ccccc1C(=O)NCCc1ccccc1
4.4%	-0.6%	3.1	-4.7%	Cn1cccc1CNC1CCCC1
-0.7%	-10.0%	.	-13.3%	N=C1/C(=C/c2ccco2)C(=O)N=C2SC(CC(=O)N3CCCC3)=NN12
-2.2%	-23.5%	7.9	-13.3%	c1cncc(-c2nc(NCCCN3CCOCC3)c3c4c(sc3n2)CCC4)c1
?	-20.9%	-0.3	-4.8%	Cc1ccc2cc3c(N)c(C(=O)N4CCOCC4)sc3nc2c1
-2.1%	-6.7%	11.6	-4.5%	Cc1cc(C)cc(NC(=O)C(OC(=O)c2sccc2C)c2ccccc2)c1 (centres undefined)
-5.7%	3.3%&3.1%	.	19.5%	COc1cccc2c1cc1c(=O)n(CC(=O)NCCCN3CCN(C)CC3)nc(C)n12
-4.8%	-31.7%	-7.5	21.3%	CCn1c(O)c(C=NC2CCCC(C)C2C)sc1=S (centres undefined)
-0.8%	.	.	13.1%	CC[C@H](C)[C@H]1CNC(=O)C(=O)N1CC1CCN(CCc2ccccc2)CC1

Later entries.
Rango-impB inh	miR-21 reporter	GLA inh pH 4.5	Rango release inh	compound
-0.7%	8.5%	-14.9	-14.1%	Cc1ccc(C(=O)CC2(O)C(=O)N(CCc3ccccc3)c3ccc(Br)cc32)o1 (centres undefined)
0.6%	1.6%	.	2.6%	COc1cc(C(=O)Nc2nnc(CC(=O)NCc3ccccc3)s2)cc(OC)c1OC
-1.2%	-1.3%	-4.2	-3.5%	C#CCOCCOCCOCCNc1nc(N2CCN(C(=O)[C@H]([C@@H](C)CC)n3cc([C@@H](N)CC(C)C)nn3)CC2)nc(N2CCN(C(=O)[C@H]([C@@H](C)CC)n3cc([C@@H](N)CC(C)C)nn3)CC2)n1
-3.0%	-4.3%	5.8	-24.9%	O=S(=O)(c1cnccc1N1CCN(/N=C/c2ccc(Cl)cc2)CC1)N1CCCCC1
1.3%	-4.5%	.	0.0%	Nc1cc(N)nc(SCC(=O)Nc2cc(S(=O)(=O)N3CCOCC3)ccc2Cl)n1
5.6%	-38.3%	-5.1	11.4%	CCN1CCN(CCCOc2ccc(-c3ccccc3)cc2)CC1
4.3%	.	.	9.6%	C=CCC[C@@H](Cc1ccc(F)cc1)C(=O)OC[C@H]1CCCN1C(=O)[C@@H](CC=C)CC(=O)N[C@H](CO)Cc1ccccc1
-3.4%	.	.	21.3%	O=C1C=C(N2CCOCC2)CO1
-1.7%	7.5%	.	3.0%	Cc1ccc(C)c2sc(NC(=O)C3CC3)nc12
0.9%	-2.5%	7.2	-3.2%	CC1(C(=O)O)CCC(C(=O)NC2CCCCC2)C1(C)C (centres undefined)
6.4%	-3.5%	.	6.7%	CCCOc1ccc(-c2c(C(=O)N/N=C(\C)COc3ccccc3)nnn2-c2nonc2N)cc1
-3.8%	.	.	-10.1%	O=C(COC(=O)CNC(=O)c1sc2ccccc2c1Cl)NC1CCS(=O)(=O)C1 (centres undefined)

Remaining list, next part
Rango-impB inh	miR-21 reporter	GLA inh pH 4.5	Rango release inh	compound
0.4%	.	.	0.7%	CCC1CCC/C1=N\NC(=O)c1ccc(Cl)cc1 (centres undefined)
-0.7%	7.9%	-10.4	-10.4%	Cc1nn2c(Nc3ccccc3)c3c(nc2c1-c1ccccc1)CCC3
-4.3%	-3.8%	-6.1	-4.3%	COC(=O)CCN1CCN(S(=O)(=O)c2ccccc2Br)CC1
?	8.6%	.	?	CCN1C(=O)[C@@H]2Cc3c([nH]c4ccccc34)C(c3ccc(OC)cc3)N2C1=S (some centres undefined)
-4.9%	8.5%	-2.7	7.9%	COc1ccc(NC(=O)C23CC4CC(C2)CC(n2cnc(Br)n2)(C4)C3)cc1Cl
?	24.4%	5.0	-1.0%	C=CCn1c(=O)[nH]c2cc(C(=O)N3CCN(c4ccc(C(C)=O)cc4)CC3)ccc2c1=O
?	.	.	8.6%	Cc1noc(NS(=O)(=O)c2ccc(NC(=O)c3ccc(N(C)C)cc3)cc2)c1C
0.3%	.	.	-1.2%	COc1cc(C(=O)NCC(=O)NCCCSc2ccccc2)cc(OC)c1OC
2.3%	12.4%	-2.0	5.3%	Cc1ccc(S(=O)(=O)N2CCOCC2)cc1NC(=O)c1cc(-c2ccccn2)nc2ccccc12
-5.3%	-8.7%	10.0	-9.0%	Cc1ccc(Nc2nc(N/N=C\c3ccc4c(c3)OCO4)nc(N3CCOCC3)n2)cc1
4.6%	-0.1%	3.0	-9.8%	COC(=O)CSc1snnc1-c1ccc(F)cc1
-2.6%	-55.9%	.	24.3%	CCc1ccccc1NC(=O)c1cc(-c2cccs2)on1

Further structures:
Rango-impB inh	miR-21 reporter	GLA inh pH 4.5	Rango release inh	compound
3.5%	7.7%&-10.5%	-19.1	8.9%	CCOC(=O)N1CCc2c(sc3c2c(=O)n(Cc2ccccc2)c(=O)n3Cc2cccc(C)c2)C1
0.2%	5.0%&5.7%	.	9.3%	COc1ccc(CNS(=O)(=O)c2ccc(-c3cnc(C4CC4)o3)cc2)cc1
2.3%	.	.	3.3%	CC(OC(=O)C1CCCC1)C(=O)Nc1ccc(C(N)=O)cc1 (centres undefined)
2.3%	-1.9%	2.4	-21.5%	O=C(NCc1ccncc1)/C(=C\c1ccc(F)cc1)NC(=O)c1ccccc1
2.5%	-9.6%	2.4	7.4%	Nc1nc(-c2ccc(Cl)cc2)nn1C(=O)c1ccco1
-0.2%	.	.	-5.5%	Cc1csc(CNc2ncnc3ccc(-c4ccoc4)cc23)c1
